FLuc inh = firefly luciferase inhibition | P08659 | purified firefly luciferase, luminescence, 8 min | Potency, µM (doses to about 57.1 µM), for inactives: at the highest dose activity change, negative = inhibition, hits mostly inhibitors | 72,000 compounds, 2.2% hits | AID 411; note: potency is the fitted concentration of half-maximal effect; % is set by controls: 0 for no effect and ±100 for the full control effect; nearly all actives have a fitted effect of over 40% in size
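Here, luciferase activity is measured as luminescence following an 8 min room-temperature reaction at 10 uM ATP, pH 7.2. Every library sample is titrated.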
Tau filament bind = binders of human tau filaments; P10636; recombinant tau filaments, thioflavin S fluorescence, 15 h; filaments grown with octadecylsulfate alongside compound; Potency, µM (titrated, usually from 57.1 µM), for the others: top-dose activity change, negative = inhibition; 71,000 compounds, 2% hits; AID 596;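 note: potency is the fitted concentration of half-maximal effect; % is set by controls: 0 for no effect and ±100 for the full control effect; actives lower thioflavin S fluorescence by blocking filaments or displacing dye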
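Assay mix: 1 uM His-tagged tau, 30 uM sodium octadecylsulfate, thioflavine S dye in HEPES/NaCl/DTT buffer. Compound is added prior to the inducer. Fluorescence after 15 h at 37 C.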
TexasRed autofl = compounds fluorescent in Texas Red spectral region. Compound fluorescence, Texas Red channel, 547/618 nm; active compounds read high. max dye-equivalent concentration, M. 59,000 compounds, 0.06% hits; in the data active = max dye-equivalent concentration above about 10 nM; inconclusive = between about 1.1 nM and that limit
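Compound fluorescence was read after 15 min at room temperature in 100 mM Tris, pH 8.0, using 547 nm excitation and 618 nm emission across a concentration series. It was expressed as Texas Red dye-equivalent concentration from an on-plate standard curve.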
ERK AVP block = vasopressin-driven ERK pathway inhibition. HEK293-V1b, vasopressin-stimulated pERK AlphaScreen. Potency, µM (top dose mostly 57.5 µM), for the others: at the highest dose activity, negative = inhibition, most hits filed as inhibitors. 72,000 compounds, 0.99% hits. AID 995; note: potency is the fitted concentration of half-maximal effect; % is set by controls: 0 for no effect and ±100 for the full control effect; nearly all actives have a fitted effect of over 55% in size
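Overnight-seeded V1b-HEK293 cells in 1% FBS got compound, then vasopressin (25 nM final, 5 min, 37C), then lysis buffer. AlphaScreen detection of phospho-ERK; activity normalized to basal and full-stimulation controls.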
Fluorescein autfl = compound fluoresces in the fluorescein spectral region | 59,000 compounds, 0.91% hits | AID 593 | Compound autofluorescence, 480/540 nm, fluorescein-equivalent; active compounds read high | max fluorescein-equivalent concentration, M; in the data active = max fluorescein-equivalent concentration above about 10 nM; inconclusive = between about 1.1 nM and that limit
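Compounds were pin-transferred into 100 mM Tris buffer, pH 8.0, and incubated 15 min at room temperature. Fluorescence was read at 480 nm excitation/540 nm emission. Signals were normalized to an on-plate six-point fluorescein standard curve as dye-equivalent concentration.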
Caspase-1 inhib = blocks human caspase-1 allosterically or competitively; Potency, µM (titrated, usually from 57.5 µM), without a hit: at the highest dose activity change, negative = inhibition, actives largely listed as inhibitors; 75,000 compounds, 0.03% hits; Caspase-1 enzyme, Ac-WEHD-AFC fluorogenic rate; AID 900; P29466;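 note: potency is the fitted concentration of half-maximal effect; plate controls were vehicle for no effect and no substrate for full effect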
Casp7 inh = caspase-7 (human) inhibition, allosteric or competitive | 75,000 compounds, 0.02% hits | AID 889 | recombinant caspase-7, Ac-DEVD-AFC fluorescence rate | Potency, µM (series often up to 57.5 µM), without a hit: at the top dose activity change, negative = inhibition, actives largely listed as inhibitors | P55210; active = well fitted inhibition curve with a large enough effect in the main read-out, with a control signal flat, not every such curve was filed as active; inconclusive = small, poorly fitted or top-dose-only effect, or a change in a side signal; note: potency is the fitted concentration of half-maximal effect; % of control where 0% means no effect
Rhodamine fluor = compound autofluorescence in rhodamine spectral region | Rhodamine-region fluorescence, 547/598 nm, Tris buffer; active compounds read high | max dye-equivalent concentration, M | 59,000 compounds, 0.05% hits; in the data active = max dye-equivalent concentration above about 11 nM; inconclusive = between about 1.1 nM and that limit
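Compounds in 100 mM Tris buffer, pH 8.0, were incubated 15 min at room temperature, then read at 547 nm excitation and 598 nm emission. Fluorescence was normalized against a per-plate six-point rhodamine standard curve as dye-equivalent concentration.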
USP2a inhib = USP2a (human) protease inhibition; O75604; USP2a enzymatic assay, qHTS inhibition; Potency, µM (top dose mostly 38.3 µM), for the others: top-dose activity change, negative = inhibition, most hits filed as inhibitors; 60,000 compounds, 0.1% hits; AID 927;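 note: potency is the fitted concentration of half-maximal effect; nearly all actives have a fitted effect of over 60% in size; plate controls were DMSO for no effect and NEM full inhibition control for full effect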
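Inhibition is measured in a cell-free coupled assay with 20 nM USP2 core, 20 nM Ub-PLA2 and 20 uM NBD C6-HPC, 2.5 h incubation. Activity normalized to NEM control.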
HEK293 cAMP cs = parental HEK293 cAMP activation (counter-screen); 73,000 compounds, 2.5% hits; parental HEK293 CNG cAMP sensor, membrane potential fluorescence; Potency, µM (series often up to 57.1 µM), for inactives: at the top dose activation, actives largely listed as activators; AID 938; note: potency is the fitted concentration of half-maximal effect; % of control where 0% means no effect; nearly all actives have a fitted effect of over 55% in size
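Parental HEK 293 cells stably expressing a modified CNG channel (no TSHR) report cAMP rise as membrane depolarization. Membrane potential dye with 100 uM RO 20-1724 was loaded for 60 min at room temperature, then compound added for 30 min; fluorescence read at 590 nm.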
* marks the source's active call; other numbers are inactive results; i = inactive; ? = inconclusive; · = no result given; [ ] = another dose, or the depositor's remark. Unless noted, calls come from the whole dose curve; as a rule, active = well fitted curve in the direction sought with a large enough effect; inconclusive = small, poorly fitted or top-dose-only effect, or another doubt; inactive = no such curve, though single readings can be large; an effect the other way counts as inactive or inconclusive. An excerpt, so the mix of outcomes need not match the whole.

smiles,FLuc inh,Tau filament bind,TexasRed autofl,ERK AVP block,Fluorescein autfl,Caspase-1 inhib,Casp7 inh,Rhodamine fluor,USP2a inhib,HEK293 cAMP cs
COC(=O)c1c(NC(=O)Cc2cccs2)sc2c1CCC(C)C2 (configuration not stated),·,·,·,·,·,-5%,-11%,·,·,1%
COc1ccc(OC)c(S(=O)(=O)NCCc2ccccc2)c1,0%,11%,?,-5%,i,1%,-1%,i,25%,7%
Cc1ccc(S(=O)(=O)N2CCCC2C(=O)Nc2cc(C)on2)cc1 (configuration not stated),2%,8%,i,-3%,i,1%,-2%,i,8%,-1%
CCNC(=O)CC1C(=O)N(c2ccccc2)C(=O)N1CCC(C)C (configuration not stated),0%,1%,?,-20%,?,-1%,-2%,i,-9%,0%
CCC(=O)c1ccc(OCC(O)CN(C)C2CCCCC2)cc1 (configuration not stated),0%,-2%,i,-11%,?,0%,-2%,i,-3%,17%
CCn1ncc(C2=NOC(C(=O)Nc3ccccc3C(=O)OC)C2)c1C (configuration not stated),·,·,·,·,·,-4%,0%,·,·,15%
Cc1c(C(N)=O)sc2nc(-c3ccccc3)cn12,-19%,11%,i,16%,i,-2%,2%,i,1%,3%
CSc1ccc(C(=S)N2CCN(CCO)CC2)cc1,0%,-11%,i,0%,?,-1%,2%,i,0%,5%
COc1cccc(-c2ccc3ncnc(NCc4ccccc4OC)c3c2)c1,-4%[2.29 µM],i,i,?,?,3%,1%,i,?,?
O=S(=O)(c1ccc(Br)cc1)N1CCN(c2cc(-c3ccccc3)nc3ncnn23)CC1,5%,6%,i,-11%,?,3%,-2%,i,51%[activator],16%
COc1ccc(Nc2ncccc2C(=O)Nc2ccccc2)cc1,-4%,20µM*,i,?,i,-1%,-2%,i,7%,-26%
Cc1cccc(OCCCCc2c(C)n[nH]c2C)c1C,0%,16µM*,·,?,·,-4%,-3%,·,3%,28%

For convenience, some entries already given:
smiles,FLuc inh,Tau filament bind,TexasRed autofl,ERK AVP block,Fluorescein autfl,Caspase-1 inhib,Casp7 inh,Rhodamine fluor,USP2a inhib,HEK293 cAMP cs
COC(=O)c1c(NC(=O)Cc2cccs2)sc2c1CCC(C)C2 (configuration not stated),·,·,·,·,·,-5%,-11%,·,·,1%
COc1ccc(OC)c(S(=O)(=O)NCCc2ccccc2)c1,0%,11%,?,-5%,i,1%,-1%,i,25%,7%

(cont.)
smiles,FLuc inh,Tau filament bind,TexasRed autofl,ERK AVP block,Fluorescein autfl,Caspase-1 inhib,Casp7 inh,Rhodamine fluor,USP2a inhib,HEK293 cAMP cs
CCSc1nnc(NC(=O)c2cccs2)s1,-2%,-23%,·,16%,·,-1%,-1%,·,-2%,0%
O=C(O)c1ccc(NS(=O)(=O)c2cccc3cccnc23)cc1,2%,-14%,·,·,·,4%,1%,·,·,2%
CC12C=C(/C=C/c3ccc(F)cc3)C(C)(C1)C(c1ccc(F)cc1)CC2=O (configuration not stated),·,·,·,23%[11.5 µM],·,-1%[11.5 µM],-1%[11.5 µM],·,·,1%[11.4 µM]
COc1cccc(-c2nc(-c3ccccc3)no2)c1,10µM*,3%,i,21%,i,-2%,1%,i,-1%,8%
Cc1nc(C)c(C(=O)NCc2ccccc2Cl)o1,0%,-13%,i,7%,i,-1%,-1%,i,9%,23%
CCOC(=O)c1ccc(NC(=O)Nc2ccc3c(c2)OCCO3)cc1,-14%,7%,i,25µM*,i,-4%,-2%,i,34%[activator],-16%
CCSC1=C(C#N)C(c2cccc(Br)c2)CC(=O)N1 (configuration not stated),2%,-6%,i,-19%,?,-3%,2%,i,1%,-2%
COc1cc(/C=C\c2ccc(OC)cc2OC)cc(OC)c1,-5%,?,·,23%,·,0%,-4%,·,·,?
COc1ccc(Cc2nn3c(Cn4nnc5ccccc54)nnc3s2)cc1,16µM*,-8%,i,0%,i,-3%,-5%,i,48%[activator],6%
c1ccc(OCc2nnc3sc(C4COc5ccccc5O4)nn23)cc1 (configuration not stated),3%,-29%,·,·,·,-3%,-11%,·,·,5%
CC1(C)CC(=O)C(C(C2=C(O)CC(C)(C)CC2=O)c2cccc(O)c2)C(=O)C1 (configuration not stated),2%,1%,·,-7%,·,0%,0%,·,3%,10%
Cc1nc2cc(F)ccc2n1C1CCN(S(=O)(=O)c2ccccc2)CC1,2%,8%,i,-30%,i,0%,0%,i,27%,6%
COc1ccc(Cl)cc1NC(=O)Cn1c(=O)n2nc(C)nc2c2ccccc21,1%,7%,·,2%,·,3%,0%,·,·,-3%[11.4 µM]
Cc1ccc(S(=O)(=O)NCC(c2ccccc2)N2CCN(CCC#N)CC2)cc1 (configuration not stated),1%,8%,?,7%,i,0%,-1%,i,10%,5%
CCOC(=O)N1CCC(NC(=O)C(Cc2ccccc2)NC(=O)c2ccco2)CC1 (configuration not stated),0%,12%,i,4%,i,0%,-1%,i,8%,3%
COc1ccc(OC)c(S(=O)(=O)Nc2ccccc2SC)c1,-1%,4%,i,-20%,i,-2%,-3%,i,-8%,18%
O=C(CCSc1nc(-c2ccco2)cc(C(F)(F)F)n1)NCC1CCCO1 (configuration not stated),0%,11%,?,-21%,?,-3%,-3%,i,2%,22%
CCC(=O)Nc1nc2ccccc2n1CCN(CC)CC,4%,23%,i,5%,i,-3%,-1%,i,37%[activator],7%
COc1cccc(-c2nn(C)c3sc(C(=O)NCc4ccco4)cc23)c1,1%,31%,i,-9%,i,-6%,-1%,i,39%[activator],9%
O=C(Cc1cccs1)Nc1ccon1,0%,-8%,i,14%,i,-6%,-12%,i,10%,0%
N#Cc1cc2c(nc1SCc1ccncc1)CCC2,-4%,6.3µM*,i,-18%,?,0%,-3%,i,-9%,10%
CNc1ncnc2ccc(-c3ccccc3OC)cc12,1%[2.29 µM],-15%,i,32%[activator],?,3%,0%,i,-10%,16%
CC/C(=C\C(=O)c1ccncc1)Nc1ccc(O)cc1,-4%,?,·,-26%,·,-1%,-3%,·,11%,-9%
N#CC1=C(N)Oc2cc(O)ccc2C1c1cccs1 (configuration not stated),3%,67%,i,-20%,i,?,-16%,i,6%,6%
CCOC(=O)c1cc2sccc2n1CC(=O)Nc1ccc(OC)c(OC)c1,2%,104%,i,1%,?,-1%,0%,i,6%,3%
CCc1nc(NCCc2ccccn2)c2nnn(Cc3ccccc3F)c2n1,2%,22%,i,?,?,-4%,-2%,i,-10%,?
O=C(c1ccco1)N1CCN(C(=O)c2cc(-c3ccncc3)nc3ccc(Br)cc23)CC1,2%,-19%,i,-30%,i,-1%,-1%,i,18%,-21%
O=C(CC(Sc1ccccc1)c1cccs1)c1ccco1 (configuration not stated),-6%,2%,?,-6%,i,-1%,-2%,i,-2%,10%
CCN(CC)S(=O)(=O)c1ccc(C(=O)Nc2ccc3c(c2)OCCO3)cc1,-1%,8%,i,2%,i,2%,1%,i,11%,-6%
Cc1noc(C)c1S(=O)(=O)NCc1ccc2c(c1)OCO2,1%,-12%,·,1%,·,0%,-2%,·,·,3%
CCOc1ccccc1OCc1nn2c(-c3ccc(C)cc3)nnc2s1,-2%,160%,i,-2%,i,-1%,-2%,i,16%,25µM*
OCCN1CCN(C(=S)c2ccc(Cl)cc2)CC1,-2%,17%,i,2%,i,1%,-1%,i,-4%,4%
COC(=O)CCC(=O)Nc1ccc(S(=O)(=O)N2CCCCCC2)cc1,-1%,1%,?,15%,?,0%,6%,i,6%,?
O=C(Cc1cccs1)N1CCCC(c2nc(-c3ccc(S(=O)(=O)N4CCCC4)cc3)no2)C1 (configuration not stated),-10%,4%,i,23%,?,0%,-4%,i,37%[activator],?
O=c1[nH]cnc2nn(-c3ccccc3)nc12,-26%,-3%,i,-10%,i,0%,1%,i,7%,-2%
CCOC(=O)N1CCN(C(=O)CSc2nc(-c3cccc(C)c3)ns2)CC1,-27%,-17%,i,13%,i,2%,0%,i,13%,?
COc1ccccc1OCC(=O)Nc1ccc(S(=O)(=O)N2CCCCCC2)cc1,1%,127%[11.4 µM],·,25µM*,·,-1%,-2%,·,22%[7.66 µM],?
Cn1c(=O)c2c([nH]c(=O)n2C)n(C)c1=O,0%,2%,i,-15%,?,-1%,-1%,i,-5%,3%
C=CCn1c(NC(=O)c2ccc(Br)o2)c(C(=O)OCC)sc1=S,1%,6%,i,12%,i,0%,0%,i,-1%,18%
O=C1c2[nH]nc(-c3ccccc3O)c2C(c2cccc(Cl)c2)N1Cc1ccco1 (configuration not stated),-3%,-15%,i,-2%,i,-7%,-12%,i,?,25%
CC1CCN(S(=O)(=O)c2ccc3[nH]cc(C(=O)NCCN4CCOCC4)c(=O)c3c2)CC1,0%,7%,i,11%,i,-4%,0%,i,36%[activator],2%
COc1ccccc1NC(=O)C1=C(C)Nc2nnnn2C1c1cccc(Br)c1 (configuration not stated),3%,-32%,i,35%,i,-2%,0%,i,-14%,-1%
COc1cc2nc(=S)n3[nH]c(CCn4nc(C)cc4C)nc3c2cc1OC,-1%,5%,i,10%,i,-1%,-1%,i,15%,-3%
Cc1nnc(SCC(=O)N2CCC(c3noc4ccc(F)cc34)CC2)s1,2%,1%,i,-10%,i,1%,1%,i,-14%,4%
COC(=O)c1sc2nc3c(cc2c1N)COC(C)(C)C3,13µM*,-2%,·,7%,·,?,-22%,·,-1%,-13%

High-throughput results: PubChem, National Center for Advancing Translational Sciences (NCATS)
